# High-throughput results: PubChem BioAssay, several laboratories
# CBX7 AlphaScr: CBX7 inhibition, primary AlphaScreen; O95931; AlphaScreen His6-CBX7 / biotin-H3K27me3 peptide binding; hits give low values; normalised signal (fraction of DMSO) (no concentration beside the values); actives 1.1% (n = 66,000); AID 1224903; in the data active means normalised signal below about 0.5;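 further: 100 nL library stock added to about 20 µL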
# Target sequence (O95931 whole entry, looked up): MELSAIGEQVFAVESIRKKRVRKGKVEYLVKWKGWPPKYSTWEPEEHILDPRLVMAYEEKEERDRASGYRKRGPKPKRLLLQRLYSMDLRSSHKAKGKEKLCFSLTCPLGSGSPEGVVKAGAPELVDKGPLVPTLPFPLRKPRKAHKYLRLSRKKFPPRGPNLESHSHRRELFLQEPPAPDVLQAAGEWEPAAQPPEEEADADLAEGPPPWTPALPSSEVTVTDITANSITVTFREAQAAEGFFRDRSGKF
# CBX7 AlphaScr z-score: second read-out of CBX7 AlphaScr, no call of its own (marks repeat the call); z-score; measured here: z-score of CBX7 signal; some inactives read as strong as hits; reference of the scale not given here;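 same signal on another scale; lower means less binding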
# Numbers without * were called inactive. A portion of the library (hit frequency here may not be typical).
# Values run as follows: CBX7 AlphaScr	CBX7 AlphaScr z-score
- O=C(NCCCN1CCC(Cc2ccccc2)CC1)C1CC(=O)N(C2CCCCCC2)C1 (stereo not drawn)
→ 1	1.7
- Cc1ccc(OCc2nc(-c3ccncc3)no2)c(Br)c1
→ 0.85	-0.18
- CCOC(=O)c1cnc2c(OC)cccc2c1Nc1ccc(OC)c(Cl)c1
→ 0.86	-2.5
- Cn1cc(CC(=O)N2CCN(c3cccc(C(F)(F)F)c3)CC2)c2ccccc21
→ 0.84	-5.6
- Cc1cccc(-c2nc(C(=O)NCC3CCCO3)c(C)o2)c1 (stereo not drawn)
→ 1.1	0.56
- Cc1ccc(C(=O)Nc2cccc(-c3nc4cc(C)ccc4o3)c2)c(Cl)c1
→ 0.99	-0.24
- Cc1cccc(-n2c(Cc3cc(=O)[nH]c(=O)[nH]3)nnc2SCC(=O)NCC2CCCO2)c1 (stereo not drawn)
→ 1.1	0.22
- O=C(NCc1ccc(F)cc1)c1cc(-c2ccc(O)cc2)on1
→ 1	0.87
- O=C(CCCn1c(=O)[nH]c2ccc(Br)cc2c1=O)NCc1cccnc1
→ 0.99	-0.24
- O=C(Nc1ccc(Cl)cc1)c1cccnc1Nc1cccc(F)c1
→ 0.89	-0.4
- O=C(Cc1ccc(-n2c(=O)[nH]c3ccsc3c2=O)cc1)NCCc1ccc(Cl)cc1
→ 1.1	0.33
- CCC(C)NC(=O)C1CCN(Cc2nc(-c3cccc(Br)c3)oc2C)CC1 (stereo not drawn)
→ 1	0.95
- COc1ccccc1-c1cc(C(=O)Nc2c(C)nn(Cc3ccc(C)cc3)c2C)no1
→ 0.94	-0.64
- COc1ccc(-c2nc3cccc(C)n3c2Nc2ccccc2C)cc1
→ 0.78	-2.3
- Cc1ccccc1CS(=O)(=O)CC1Nc2cc(C(=O)O)ccc2NC1=O (stereo not drawn)
→ 1	0.012
- COC(=O)c1c(NC(=O)c2cccc(C)c2)sc2c1CCCC2
→ 1.4	7.4
- O=C(Nc1ccccc1Cl)Nc1cccc2cccnc12
→ 0.92	-0.36
- C=CCNC(=O)c1ccc2c(c1)N(Cc1c(F)cccc1Cl)C(=O)CS2
→ 0.97	-0.47
- Cn1c(=O)c(-c2ccccc2N)nc2ccccc21
→ 1.1	1.3
- O=C(CN1CCN(Cc2ccc(Cl)cc2)C1=O)NCc1ccccc1
→ 0.82	-2.4
- CC1CCCCC1NC(=O)C1c2cccn2CC(=O)N1c1ccc(Cl)cc1 (stereo not drawn)
→ 0.94	-0.71
- Cc1cccn2cc(-c3ccc(NC(=O)CC(C)C)cc3)nc12
→ 1	1.5
- c1ccc(Cc2nc(NCc3cccnc3)c3c4c(sc3n2)CCCC4)cc1
→ 0.89	-1.1
- O=C(NCc1cccnc1)c1cc(-c2ccc(Br)cc2)on1
→ 0.95	-1.1
- CC(=O)NCC(=O)Nc1ccc2nc(N3CCOCC3)cc(C)c2c1
→ 1.1	0.51
- COc1ccccc1OCCCn1c(C2CC(=O)N(c3cccc(C)c3C)C2)nc2ccccc21 (stereo not drawn)
→ 0.81	-1.2
- Cc1cc(C(=O)Nc2c(F)cc(F)cc2Br)n(-c2ccccc2)n1
→ 1.1	1.8
- COc1ccc(-c2noc(CCC(=O)Nc3ccc(F)cc3F)n2)cc1
→ 1	0.024
- Cn1c(SCC(=O)Nc2ccc(F)cc2F)nnc1-c1c[nH]c2ccccc12
→ 1.1	0.52
- O=C(CSC1CC(=O)N(c2ccc(C(=O)O)cc2)C1=O)Nc1ccc(Cl)cc1 (stereo not drawn)
→ 0.9	-1.6

# Looked up by structure from the list above, 7 records:
# Values run as follows: CBX7 AlphaScr	CBX7 AlphaScr z-score
- COc1ccc(-c2nc3cccc(C)n3c2Nc2ccccc2C)cc1
→ 0.78	-2.3
- Cc1ccccc1CS(=O)(=O)CC1Nc2cc(C(=O)O)ccc2NC1=O (stereo not drawn)
→ 1	0.012
- Cn1c(=O)c(-c2ccccc2N)nc2ccccc21
→ 1.1	1.3
- c1ccc(Cc2nc(NCc3cccnc3)c3c4c(sc3n2)CCCC4)cc1
→ 0.89	-1.1
- Cc1ccc(OCc2nc(-c3ccncc3)no2)c(Br)c1
→ 0.85	-0.18
- Cc1cccc(-n2c(Cc3cc(=O)[nH]c(=O)[nH]3)nnc2SCC(=O)NCC2CCCO2)c1 (stereo not drawn)
→ 1.1	0.22
- Cn1c(SCC(=O)Nc2ccc(F)cc2F)nnc1-c1c[nH]c2ccccc12
→ 1.1	0.52

# Next section:
# Values run as follows: CBX7 AlphaScr	CBX7 AlphaScr z-score
- O=C(Nc1ccc(F)c(Cl)c1)c1n[nH]c(=O)c2ccccc12
→ 1.2	1.4
- CC(C)NC(=O)Cn1ncc2c1-c1ccccc1OC2
→ 1	0.087
- COCCn1c(SCC(=O)Nc2cccc(C)c2C)nnc1-c1c[nH]c2ccccc12
→ 1.1	0.46
- COc1cc2c(cc1OC)C(C(=O)Nc1ccc3c(c1)OCCO3)C1c3ccccc3CCN1C2=O (stereo not drawn)
→ 0.97	-0.78
- O=C(CSc1nccn1-c1ccc(F)cc1)Nc1ccc2c(c1)OCO2
→ 0.62	-0.51
- COc1ccc(OC)c(-n2cnc3cc(C(=O)NCC(OC)OC)ccc32)c1
→ 1	0.075
- COc1ccc(NC(=O)C(Cc2ccccc2)NS(=O)(=O)c2cccc3cccnc23)cc1 (stereo not drawn)
→ 1	0.36
- COc1ccc(CN2C(=O)c3cccnc3C2Nc2cc(Cl)ccc2C)cc1 (stereo not drawn)
→ 0.91	-1.1
- O=C(CC1Oc2ccccc2NC1=O)NCCCN1CCCC1=O (stereo not drawn)
→ 1.2	1.4
- CCCN1CCCc2cc(CN(CCCN3CCOCC3)C(=O)Nc3ccc(Cl)cc3)ccc21
→ 0.52	-7.5
- COc1ccc(N(CC(=O)N2CCCCCC2)S(=O)(=O)c2ccc(C)cc2)cc1
→ 1	0.36
- O=C(NCC1CCCO1)c1ccc2c(c1)N(Cc1ccccc1Cl)C(=O)CS2 (stereo not drawn)
→ 1.1	0.41
- COc1ccc(NC(=O)CCc2c(C)nc3c(c(C)nn3-c3ccc(C)cc3)c2C)cc1OC
→ 1	0.24
- COc1ccc(-c2nnc(NC(=O)c3ccc(S(=O)(=O)N4CCCC4)cc3)o2)cc1
→ 0.56	-9.8
- CCCCCNC(=O)CCCC1=NS(=O)(=O)c2ccccc2N1
→ 0.98	-0.17
- CCc1ccc(NC(=O)Cn2cc(S(=O)(=O)c3ccccc3)c(=O)c3cc(C)ccc32)cc1
→ 1.1	0.79
- CN1C(=O)c2ccc(NC(=O)C3CC(=O)N(c4ccccc4)C3)cc2C1=O (stereo not drawn)
→ 1.1	1.2
- Cc1ccc(-c2nnc(Nc3ccc4c(c3)ncn4-c3ccccc3C)c3ccccc23)cc1
→ 0.69	-6.7
- COc1ccccc1CNC(=O)c1cnc2cc(C)ccn2c1=O
→ 1.1	2
- COc1ccc2c(c1)c(=O)c(S(=O)(=O)c1ccccc1)cn2CC(=O)Nc1ccccc1OC
→ 0.92	-0.56
- O=S(=O)(c1ccc(Cl)cc1)c1nc(-c2ccccc2Cl)oc1NCc1ccccc1
→ 0.71	-10
- c1ccc(-c2noc(CN3CCN(c4ccccc4)CC3)n2)cc1
→ 1	0.51
- O=C(Nc1cccc(NCc2ccc3c(c2)OCO3)c1)c1ccccc1Cl
→ 0.75	-1.2
- O=C(C1CCN(c2nc3ccccc3[nH]2)CC1)N1CCN(Cc2ccc3c(c2)OCO3)CC1
→ 1.1	0.83
- CC(C)CCNC(=O)C1CCN(c2nc3ccccc3o2)CC1
→ 1.2	0.17
- Cc1ccccc1NS(=O)(=O)c1ccc2[nH]cc(C(=O)NCCCN3CCOCC3)c(=O)c2c1
→ 1.1	2.3
- CCOc1ccc(C2C(N3C(=O)c4ccccc4C3=O)C(=O)N2c2ccc(C)c(Cl)c2)cc1 (stereo not drawn)
→ 0.89	-3.2
- COc1cccc(CNC(=O)C2CCN(S(=O)(=O)c3cccc4nsnc34)CC2)c1
→ 1	0.21
- CCOc1ccc2nc(N3CCCC(C(=O)NC4CCN(Cc5ccccc5)CC4)C3)sc2c1 (stereo not drawn)
→ 0.9	-2.7
- CN1CCc2c(n(CC(O)CN3C(=O)c4ccccc4S3(=O)=O)c3ccccc23)C1=O (stereo not drawn)
→ 0.96	-0.76

# Values run as follows: CBX7 AlphaScr	CBX7 AlphaScr z-score
- O=C(c1nnc(Cc2ccc(Cl)cc2)o1)N1CCc2ccccc2C1
→ 1.1	4.1
- CCOc1ccc(C(=O)NCCc2cc3c(C)ccc(C)c3[nH]c2=O)cc1OCC
→ 1.1	0.15
- Cc1ccc(Cc2cnc(NC(=O)CCCOc3ccc(Cl)cc3)s2)cc1
→ 0.97	-0.74
- Cc1ccc(S(=O)(=O)NCCc2cc3cc(C)c(C)cc3[nH]c2=O)cc1
→ 1	0.027
- Cc1nc2c(C(=O)NCCc3ccccc3)cnn2c(C)c1Cc1ccccc1F
→ 1.1	3.1
- COc1ccc2c(c1)c(=O)c(S(=O)(=O)c1ccc(C)cc1)cn2Cc1cccc(Cl)c1
→ 0.9	-3.6
- Cc1ccccc1OCCCC(=O)Nc1nnc(Cc2ccc(Cl)cc2)s1
→ 1	0.11
- COc1ccc(OCC(O)CN2CCCC2)cc1 (stereo not drawn)
→ 1	0.51
- CCOC(=O)c1cnc2c(OC)cccc2c1N1CCC(Cc2ccccc2)CC1
→ 0.42*	-0.65*
- O=C(COc1ccc(Br)cc1)Nc1ncc(Cc2ccc(F)cc2)s1
→ 0.94	-1.5
- C=CCNC(=O)C1CC(c2ccc(F)cc2)=NO1 (stereo not drawn)
→ 1	0.42
- COC(CNC(=O)c1c[nH]c2ccc(S(=O)(=O)N(C)c3ccccc3C)cc2c1=O)OC
→ 1.2	2.2
- O=C(CSc1oc(-c2ccccc2)nc1S(=O)(=O)c1ccc(F)cc1)NCC1CCCO1 (stereo not drawn)
→ 0.93	-0.9
- Cc1nc(Nc2ccc(F)cc2F)c2c3c(sc2n1)CCCC3
→ 1	0.097
- COc1ccc(-c2nn(C)c3sc(C(=O)Nc4ccc(F)cc4)cc23)cc1OC
→ 1.1	2.1
- C=CCNC(=O)c1ccc2c(c1)N(Cc1ccccc1)C(=O)CS2
→ 1	0.54
- COc1ccc(OCc2nc3ccccc3n2CC(C)C)cc1
→ 1.1	2.1
- Cc1ccc2c(c1C)NC(=O)CC2c1ccccc1F (stereo not drawn)
→ 1	0.41
- CC1(C)Cc2c(C#N)c(NCC3CCCO3)nc(-c3ccccc3)c2CO1 (stereo not drawn)
→ 1	0.34
- O=C(CC1Nc2ccccc2NC1=O)NCc1cccnc1 (stereo not drawn)
→ 1	0.18
- O=c1nc(/C=C/c2ccc(O)cc2)cc(C(F)(F)F)[nH]1
→ 1.1	1.7
- Cc1ccc(Cn2c(=O)c3cccnc3n(Cc3ccccc3F)c2=O)cc1
→ 1.3	4.9
- COc1cc2ccccc2cc1C(=O)Nc1ccc2oc(-c3cccc4ccccc34)nc2c1
→ 1.5	4.8
- COc1ccc(OC)c2[nH]c(=O)c(CCNC(=O)c3c(F)cccc3F)cc12
→ 1	0.16
- N#Cc1nc(-c2ccc(Cl)cc2)oc1N1CCOCC1
→ 1.1	1.7
- CCOc1ccccc1-c1nc(-c2ccc(NC(=O)c3ccncc3)cc2)no1
→ 0.95	-0.99
- Cc1cccc(Cc2cnc(NC(=O)CCCOc3ccc(Cl)cc3)s2)c1
→ 0.92	-2.2
- CC(C)N1C(=O)N(c2ccccc2)C(=O)C1CC(=O)Nc1ccc(F)cc1 (stereo not drawn)
→ 1	2
- Cc1ccc(CN2C(=O)CCC2C(=O)NC2CC2)cc1 (stereo not drawn)
→ 1	0.71
- COc1ccccc1-n1nc(C(=O)Nc2nc3ccccc3s2)c2ccccc2c1=O
→ 1	0.78

# Values run as follows: CBX7 AlphaScr	CBX7 AlphaScr z-score
- Cc1c(C(=O)Nc2ccc(F)cc2)sc2ncn(CC(=O)N3CC(C)CC(C)C3)c(=O)c12 (stereo not drawn)
→ 1	0.48
- Cc1cc(C)n2cc(CSc3ccc(Cl)cc3)nc2n1
→ 0.8	-0.79
- CCCCN(C)CCNC(=O)CCC(=O)Nc1ccc2nc(N3CCCCC3)cc(C)c2c1
→ 0.88	-1.2
- Cc1c(Cl)cccc1NC(=O)CN1C(=O)CSc2ncccc21
→ 0.79	-0.85
- CCc1nnc(NC(=O)c2cc3sccc3n2Cc2ccc(Cl)cc2)s1
→ 1	0.78
- COc1ccc(OCC(=O)Nc2ccc(-c3nc4ccccc4o3)cc2)cc1
→ 1	1.1
- COc1ccc(CCNC(=O)c2nc(-c3ccccc3)oc2C)cc1OC
→ 1	0.75
- O=C(NCCCN1CCN(c2ccc(F)cc2)CC1)c1cc2c(s1)-c1ccccc1OC2
→ 1.1	2
- COc1ccc(C2CC(=O)c3c([nH]c(C(=O)OCCOc4ccccc4)c3C)C2)cc1 (stereo not drawn)
→ 1.1	2.1
- O=S(=O)(NC1CCCCC1n1cc(-c2ccccc2)nn1)c1ccccc1 (stereo not drawn)
→ 1	0.12
- CCCCSCCCNC(=O)c1cc(Sc2nnc(C)s2)nc2ccccc12
→ 0.93	-1.9
- Cc1cc(N2CCOCC2)nc2ccc(NC(=O)CCC(=O)N3CCCc4ccccc43)cc12
→ 0.87	-0.17
- CCn1cc(C(=O)O)c(=O)c2cc(F)c(NCCCN(C)C)cc21
→ 0.61	-0.46
- CCOC(=O)N1CCC(N2Cc3cccc(C(=O)N4CCN(C5CCCCC5)CC4)c3C2=O)CC1
→ 1.1	0.53
- COc1ccc(OC)c(S(=O)(=O)NCCc2c(C)[nH]c3ccc(OC)cc23)c1
→ 0.56	-0.44
- Cc1cccc(N2CCN(S(=O)(=O)c3ccc4c(c3)CCN4C(=O)C3CC3)CC2C)c1 (stereo not drawn)
→ 0.9	-3.5
- CCOC(=O)C1CCN(c2c(NC3CCN(C(=O)OCC)CC3)c(=O)c2=O)CC1
→ 0.99	-0.26
- CCOc1ccc(CCNC(=O)CN2N=C(c3ccccc3)CCC2=O)cc1OCC
→ 1	-0.017
